Compound activity as filed in PubChem.
CDC25B-CDK2 inh = primary biochemical HTRF screen for blockers of M-phase inducer phosphatase 2 binding to CDK2/cyclin A; P30305+P24941; HTRF CDC25B-CDK2/CyclinA binding, anti-His/anti-Flag; stronger effect = higher value; z-score (concentration not given with the values); 0.72% of 94,000 active;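 further: score is relative to mean and SD of negative controls; strong numbers were not always called active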
TAR Tat displ = TAR RNA-Tat peptide displacers, HIV-1, primary screen, biochemical, FRET, FAM/TAMRA-labeled Tat; HIV-1 TAR RNA, Tat peptide displacement FRET; stronger effect = higher value; z-score (test concentration not listed); 0.6% of 100,000 active;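 further: score is relative to mean and SD of negative controls; some compounds called inactive have numbers as strong as hits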
* = called active by the depositor; . = no result given.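 How the source made its calls: active means z-score from 3 up in half or more of its runs; inactive means the rest.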 Compounds were not picked by outcome; any-hit rate near 0.94%.

SMILES	CDC25B-CDK2 inh	TAR Tat displ
COc1ccc(C2C3=C(CC(c4ccccc4)CC3=O)Nc3nnnn32)cc1 (configuration not stated)	.	0.41
Cc1cc(C)cc(CC2CC(=O)N(c3ccccc3)C2=O)c1 (configuration not stated)	0.19	0.39
CCOC(=O)NC(=S)NC12CC3CC(CC(C3)C1)C2	-2.5	.
O=C(NCc1cccs1)NCc1nnnn1-c1ccccc1	.	1.6
Cc1cc(N2CCn3c(nc4ccccc43)C2)ccc1NC(=O)NC1CCCCC1	1.6	-0.03
CN1CCN(C(=O)CN(c2ccccc2)S(=O)(=O)N(C)C)CC1	-2.4	-0.87
Cc1cc(C)n(-c2ccc(-n3cccc3C=C(C#N)C#N)cc2)n1	-0.5	.
Cc1ccc(-c2noc(-c3nnn(-c4ccc(C)c(C)c4)c3N)n2)cc1	.	-1
CSc1nnc2c(n1)OC(c1ccccc1C)N(C(C)=O)c1ccccc1-2 (configuration not stated)	0.53	0.1
Cc1ccc(CNS(=O)(=O)c2cc3[nH]c4c(c3cc2C)C(=O)CCC4)o1	.	2
CCOC(=O)Nc1ccc2c(c1)nc(CN1CCOCC1)n2C	-1.4	0.8
COC(=O)c1cc(-c2ccc(S(=O)(=O)NC(C)(C)C)s2)on1	.	0.42
Cc1cc(C(=O)NNC(=O)C2CCN(c3nccc(C(F)(F)F)n3)CC2)nn1C(C)(C)C	-0.92	.
CCC(=O)c1sc(-c2ccc(Cl)cc2)cc1NC(=O)Nc1c(C)noc1C	-0.63	.
Cc1ccc(C(=O)Nc2nc(-c3ccc(Br)cc3)ns2)cc1	0.21	0.91
CSc1ccc(C2CC(=O)N3CN(c4ccccc4C)CSC3=C2C#N)cc1 (configuration not stated)	15*	0.58
Cc1cccc(-c2nc(SCc3cc(=O)n4c(C)csc4n3)n[nH]2)c1	.	1.4
CCOC(=O)N1CCC(NC(=O)C2CCN(C(=O)N3CCOc4ccccc43)CC2)CC1	.	3.1
COC(=O)COc1cc(OCC(=O)OC)c2c(=O)cc(-c3ccccc3)oc2c1	-1.1	.
Cc1nc([N+](=O)[O-])c(Br)n1CC(=O)c1ccc(F)cc1	-1.5	0.01
CCC(C)(C)NS(=O)(=O)c1cc(Br)cnc1N	-1.9	1.1
NC1=NC2(CCCCC2)N=C(Nc2ccc(F)cc2F)N1	-0.45	.
O=C(Nc1ccccc1SCc1cc(=O)n2nc(C3CC3)sc2n1)c1ccco1	.	1.3
COc1ccccc1NC(=O)CSc1nc(-c2ccco2)nc2cc(=O)[nH]n12	.	-0.97
Cc1ccc(S(=O)(=O)N(C)CCO)cc1-c1nnc2c3ccccc3c(C)nn12	-0.54	0.88
CC(c1ccccc1)n1c(SCC(=O)c2ccc(F)cc2)n[nH]c1=O (configuration not stated)	-0.04	.
CCCNC(=O)N1CCN(c2nc(CC(C)C)c3c(c2C#N)CC(C)(C)OC3)CC1	-1.6	-0.47
Cc1ccc(C)n1-c1nnc(N2CCCC(C(=O)O)C2)s1 (configuration not stated)	1.5	2.8
CN(C)CCNc1ncnc2c1c(-c1ccccc1)cn2-c1ccccc1	-1.5	1
CCC1CCCCN1CCCN1C(=O)c2ccc(-c3ccco3)n2CC1(C)C(=O)NC1CCCCC1 (configuration not stated)	.	-2.7

Retrieved by compound from the list above:
SMILES	CDC25B-CDK2 inh	TAR Tat displ
CN(C)CCNc1ncnc2c1c(-c1ccccc1)cn2-c1ccccc1	-1.5	1
CCC(C)(C)NS(=O)(=O)c1cc(Br)cnc1N	-1.9	1.1
CC(c1ccccc1)n1c(SCC(=O)c2ccc(F)cc2)n[nH]c1=O (configuration not stated)	-0.04	.
Cc1cccc(-c2nc(SCc3cc(=O)n4c(C)csc4n3)n[nH]2)c1	.	1.4

Other structures:
SMILES	CDC25B-CDK2 inh	TAR Tat displ
Cc1cc(-c2nnc(CN3CCCCC3)o2)ccc1[N+](=O)[O-]	-1.1	.
COC(=O)CN1C(=O)CSc2ccc(S(=O)(=O)Nc3cccc(Br)c3)cc21	.	-0.78
COC(=O)c1ccc(Cn2c(C)cc(C)[n+]2C)o1	0.7	1.3
C#CCn1c(CCCCCNC(C)=O)nc2ccccc21	-0.91	1.9
COc1ccc(S(=O)(=O)NCCc2csc(-c3ccc(Cl)cc3)n2)cc1OC	.	-0.66
CS(=O)(=O)Nc1ccccc1Oc1ccc(Cl)cc1Cl	2.2	.
O=C(NCCSCc1ccco1)c1ccc2c(c1)nc1n2CCCCC1	.	1.2
Cc1ccc(C2NC(=S)NC3=C2N2CCC3CC2)cc1 (configuration not stated)	-2.3	.
Cc1noc2ncnc(N3CCC(C(=O)NCCN(C)C4CCCCC4)CC3)c12	.	0.81
O=C(CSc1nnc2c3c4c(sc3ncn12)CCCC4)N1CCN(c2ccc(F)cc2)CC1	-0.38	0.97
Clc1cccc(-c2cccc3cnccc23)c1	-2.7	2
CCc1nn2c(=O)c(S(=O)(=O)NCc3ccc4c(c3)OCO4)c(C)nc2s1	-0.56	-0.46
CN1CCc2c(sc3c2C(=O)NC(c2ccc(OC(=O)c4ccccc4)cc2)N3)C1 (configuration not stated)	-1.2	-2.6
Cc1ccc(NC(=O)Cn2cnc3sc(C)c(S(=O)(=O)N4CCCCC4)c3c2=O)cc1F	1.6	.
CC1CCCCC1NS(=O)(=O)c1cc2c3c(c1)CC(=O)N3CCC2 (configuration not stated)	.	2.2
CC1(C)Cc2nc3sc4c(SCC(=O)Nc5ccccc5)ncnc4c3cc2CO1	.	1.1
CCCS(=O)(=O)c1nc(S(=O)(=O)c2ccc(C)cc2)c(N2CCN(CC)CC2)s1	-0.74	1.1
COC(=O)C1=C(c2ccccc2)C(c2ccccc2)=C(C(=O)OC)C1=O	-0.81	.
O=C(c1cnccn1)N1CCN(c2nc(-c3ccc(Cl)cc3)no2)CC1	.	0.41
Cc1cc(S(=O)(=O)[C@H]2CS(=O)(=O)C[C@@H]2NC(C)C)ccc1F	-2.7	-0.58
O=C(Nc1ccccc1)c1cnn2c1NC(c1ccccc1)=CC2c1ccc(Br)cc1 (configuration not stated)	.	-1.3
CCOC(=O)c1noc2nc(C)nc(N3CCN(c4ccc(F)cc4)CC3)c12	.	-0.19
CCOc1ccc(S(=O)(=O)n2c(C)nc3ccccc32)cc1	-1	0.43
CC1CCCN(c2nc(N)c([N+](=O)[O-])c(Nc3ccc(F)cc3)n2)C1 (configuration not stated)	.	1.2
CC(=O)CSc1nc(C)cc(C)c1C#N	-1.8	.
O=C(Nc1ccc(Br)cc1)N1CCSc2ncccc21	.	0.44
COC(=O)c1cc(NC2c3ccccc3C(=O)N2c2ccccn2)cc(C(=O)OC)c1 (configuration not stated)	0.9	0.39
Cc1cc(NCc2ccc(F)cc2)n2cnnc2n1	-1.6	-1
CCN(CC)CCN(C(=O)c1ccco1)c1nc2ccc(Br)cc2s1	.	0.6
COc1cccc(CCN[C@H]2CS(=O)(=O)C[C@@H]2S(=O)(=O)c2ccc(F)cc2)c1	-0.69	1.8
COc1cc(C2C(C#N)=C(N)Oc3cc(C)n(Cc4cccs4)c(=O)c32)cc2c1OCO2 (configuration not stated)	-0.04	.
CC1CCC(NC(=O)C2(C)Cn3c(cc4occc43)C(=O)N2CCCN2CCCC2)CC1 (configuration not stated)	.	-0.52
Cc1sc2c(c1C)CSC(C(=O)NC1CCCCC1)=C2	.	-3.1
Cc1nc(N2CCCC2)c2c(C(=O)Nc3ccc(Cl)cc3C)c(C)oc2n1	.	0.69
Cc1cccc2c1Oc1nc(-c3ccccc3)nc(SCC(N)=O)c1C2	-1.3	-0.8
CC(C)(C)c1ccc(C23OC(=O)C(C)(C)C2OC(=O)C3(C)C)cc1 (configuration not stated)	-2	.
CCCN(CCC)C(=O)Cn1ncc2c([nH]c3ccccc32)c1=O	.	-0.76
COc1ccc(C2Nc3ccc4ccccc4c3C3=C2C(=O)CCC3)cc1OC (configuration not stated)	-1.4	1.6
CCCn1c2ccccc2c2cnn(CC(=O)N3CCC(N4CCCCC4)CC3)c(=O)c21	.	1.3
CCCc1c(C)nc2nc(-c3ccco3)[nH]n2c1=O	.	1.4
CCOC(=O)NC(Nc1cc(C)ccn1)(C(F)(F)F)C(F)(F)F	-0.04	.
O=C1CC(c2ccc(-c3ccccc3)cc2)c2cc3c(cc2N1)OCO3 (configuration not stated)	0.06	1.5
CCC(O)c1nc2ccccc2n1CCOc1cccc(C)c1C (configuration not stated)	-0.49	1.6
Cc1cc(Cl)n2nc(C)c(-c3ccc(F)cc3)c2n1	.	0.49
CC1=C(C(=O)OCc2ccccc2)C(c2cccc(O)c2)C2=C(CCCC2=O)N1 (configuration not stated)	-1.4	1.2

Arranged by SMILES length (falling): three of the compounds above
SMILES	CDC25B-CDK2 inh	TAR Tat displ
Cc1cccc2c1Oc1nc(-c3ccccc3)nc(SCC(N)=O)c1C2	-1.3	-0.8
CCCN(CCC)C(=O)Cn1ncc2c([nH]c3ccccc32)c1=O	.	-0.76
Cc1cc(Cl)n2nc(C)c(-c3ccc(F)cc3)c2n1	.	0.49

More entries
SMILES	CDC25B-CDK2 inh	TAR Tat displ
Cn1c(SCC(=O)NCC2CCCO2)nc2c([nH]c3ccccc32)c1=O (configuration not stated)	-0.89	.
O=C(NCCN1CCOCC1)C1=Cc2sc3c(c2CS1)CCCC3	.	-0.34
CCOc1cc(CNCCSc2nnnn2C)cc(Cl)c1OC	0.59	0.53
COc1cccc(S(=O)(=O)c2c[nH]c3cc(Cl)ccc3c2=O)c1	-2.3	-0.78
COc1cc2c(cc1OC)C1Cc3ccc(OC)c(OC)c3CN1CC2 (configuration not stated)	.	1.3
O=S(=O)(Nc1cccc(-c2ccc(N3CCCCC3)nn2)c1)c1ccccc1Cl	.	1.7
O=C(CSc1nncn1-c1ccc(OCc2ccccc2)cc1)Nc1ccccc1	0.75	.
Cc1nnc(NC2CC2)c2c1nnn2Cc1ccccc1Cl	-1.6	0.86
CCOCCOCCN(CC)c1ccc(N=Nc2c(C#N)cc([N+](=O)[O-])cc2C#N)c(NC(C)=O)c1	-1.1	.
O=C1CCCc2cc(S(=O)(=O)NCC3CCC(C(=O)NC4CCCCC4)CC3)ccc2N1 (configuration not stated)	.	-0.56
Cc1noc2ncnc(Nc3ccccc3)c12	.	-0.31
O=C(Cn1nnc(-c2ccc3c(c2)OCO3)n1)Nc1ccc(F)c(F)c1	-2	0.3
Cc1c(N)cccc1-c1nc2ccccc2o1	-2.2	1.4
Cc1c(C(=O)NCc2ccc3c(c2)OCO3)oc2ccc3c(c12)C=CC(C)(C)O3	-0.13	1.9
O=C(NC1(C(F)(F)F)NC(=O)N(Cc2ccco2)C1=O)c1ccccc1F (configuration not stated)	0.36	.

Shown bar-delimited: 4 of the compounds above
SMILES | CDC25B-CDK2 inh | TAR Tat displ
O=S(=O)(Nc1cccc(-c2ccc(N3CCCCC3)nn2)c1)c1ccccc1Cl | . | 1.7
O=C(CSc1nncn1-c1ccc(OCc2ccccc2)cc1)Nc1ccccc1 | 0.75 | .
Cc1nnc(NC2CC2)c2c1nnn2Cc1ccccc1Cl | -1.6 | 0.86
CCOCCOCCN(CC)c1ccc(N=Nc2c(C#N)cc([N+](=O)[O-])cc2C#N)c(NC(C)=O)c1 | -1.1 | .

Additional entries.
SMILES	CDC25B-CDK2 inh	TAR Tat displ
Cc1nn(-c2nncc(-c3ccccc3)n2)c2c1C(c1ccccc1OC(C)C)CC(=O)N2 (configuration not stated)	-2.7	2.2
C#CCn1c(O)c(N=NC(=O)c2cc(Cl)ccc2O)c2cc(Br)ccc21	-0.21	.
CC(C)NC(=O)c1cc2nc(-c3cccs3)cc(C(F)(F)F)n2n1	.	-0.32
CCCCN(CCNc1ncnc2onc(C)c12)Cc1ccco1	.	0.39
COc1ccc(N2CCN(CCNc3nc(-c4cc(OC)ccc4OC)no3)CC2)cc1	.	1.2
O=C(OCC1CC1)c1cnc(Sc2ccccn2)nc1C(F)(F)F	-1.1	.
Cc1nn(-c2ccccc2)c2c1C(c1ccccc1Cl)C(C#N)=C(N)O2 (configuration not stated)	-1.3	-1.6
CCn1c(NC(=O)Nc2cc(C)ccc2C)cc2sccc21	1.4	-5.6
Cc1ccc2nc(CNS(=O)(=O)c3cc4[nH]c5c(c4cc3C)C(=O)CCC5)[nH]c2c1	.	1.5
O=C(Nc1ccccc1Br)N1CCC2(CC1)Nc1cc(F)ccc1-n1cccc12	.	-0.06
CC(C)(C)c1ccc(S(=O)(=O)NCCCn2c(C(F)(F)F)nc3cccnc32)cc1	.	-6.1
Cc1cc2c(cc1S(=O)(=O)Nc1cccc(C)c1C)OCCN2C	.	1.8
CCCCOC(=O)Cn1nnc2sc3c(c2c1=O)CCCC3	0.19	0.09
COc1ccc(-c2nc3c4cnn(-c5ccc(C)cc5)c4ncn3n2)cc1OC	-0.21	-0.3
O=C(c1ccccc1Cl)N1CCN(C2=NS(=O)(=O)c3ccccc32)CC1	-0.3	1.4
COC(=O)c1sccc1N/N=C/c1c(F)cccc1Cl	-1.9	.
CCN(CC)c1ccc(/C=N/NC(=O)CCC(=O)Nc2cccc(Cl)c2C)c(O)c1	-0.58	.
Cn1cc(S(=O)(=O)N2CCc3ccccc32)cc1C(=O)NC(C)(C)C	.	-0.11
CCCCOC(=O)C1=C(C)NC2=C(C(=O)CC(C)(C)C2)C1c1ccc(O)cc1 (configuration not stated)	-0.35	0.13
Cc1cc2nc(CSCC(=O)Nc3ccccc3)cc(=O)n2o1	.	0.12
O=C(Nc1ccc2c(c1)OCO2)C1CC(c2ccccc2F)=NO1 (configuration not stated)	-1.3	0.81
O=C(Cc1c[nH]c2ccccc12)NC1CCN(c2nc3ccccc3s2)CC1	-0.51	-0.68
CC(C)c1ccc(-c2c(NC3CCCC3)c(=O)c2=O)cc1	.	2
Cc1ccc(-c2noc(COc3ccc(C(C)(C)C)cc3)n2)cc1	-0.26	1.8
